Assay outcomes (PubChem)
PrP UTR inh: inhibition of PrP 5' UTR reporter expression; inhibition, % (no concentration beside the values); cell-based PrP 5' UTR mRNA reporter, plate reader; 340,000 tested, 0.35% active; AID 488862, 2010;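 active = every replicate at 50% or more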;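 also: 0 = median of the neutral control wells; tested in H4 reporter cells; numbers are from one replicate; inactives centre near -14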
Mtb hypoxia rep: PubChem AID 1159583 | fluorescence inhibition, % (no concentration beside the values) | M. tuberculosis hypoxia-regulated fluorescent reporter, fluorescence | 300,000 tested, 0.1% active;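 active = 35 to 45% if threefold the growth effect, above 45% if 1.5-fold the growth effect; inactive = the rest, general growth blockers included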;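 also: wells of about 50 µL received 100 nL stock; 0% = vehicle wells and 100% = reference inhibitor wells; whole bacteria with a GFP reporter of the hypoxia response; strong numbers were not always called active; many hits fall short of the cut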
ugtP null kill: growth inhibition of ugtP-null S. aureus, primary screen, RN4220 ugtP deletion, OD600; 16 h; some inactives read as strong as hits; growth inhibition, % (concentration not given with the values); 330,000 tested, 0.54% active; AID 1259309, 2017;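 active = z-score under -3 and OD600 up to 0.15 on both plates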;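 also: plate controls were untreated wells for no effect and antibiotic for full effect; wells of about 80 µL received 100 nL stock; the first replicate is given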
Sa RN4220 lethal: growth inhibition of S. aureus RN4220, primary screen, OD600. 16 h. inhibition, % (test concentration not listed). 330,000 tested, 0.33% active. AID 1259311, 2017;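 active = z-score of -3 or lower and OD600 up to 0.18 on both plates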;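 also: plate controls were untreated cells for no effect and reference antibiotic for full effect; stock transfer was 100 nL into about 80 µL; one replicate is shown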
BJeLR lethal: MLPCN primary cell-based screen for lethality selective to Ras in HRASV12 cells; BJeLR (HRASV12) viability, CellTiter-Glo ATP luminescence, 48 h; reference of the scale not given here; inhibition, % (no concentration beside the values); 300,000 tested, 0.17% active; AID 1554, 2009;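 active = replicate mean above 50%; inconclusive = above 50% but judged a plate artefact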;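 also: 50 nL library stock added to about 25 µL; numbers are from one replicate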
Bead autofluor: flagged as autofluorescent in microsphere protease counterscreen. AID 624483. fluorescence intensity (test concentration not listed). compound autofluorescence counterscreen, microsphere flow cytometry; hits give high values. 360,000 tested, 3.1% active;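 active = at least 3 SD above the mean of all compounds, about 16000 in these data; inconclusive = too few beads counted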;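 also: 100 nL of 1 mM stock went into each well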
Mtb hypoxia rep growth: recorded beside Mtb hypoxia rep, whose call it bears; growth inhibition, %; measured here: M. tuberculosis growth (absorbance);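 0% = vehicle and 100% = reference antibiotic; read after six days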
The depositor's hits bear a star; ? = inconclusive; · = not tested or not shown; & = joins results of further samples. Rows are unselected; about 4.1% have a hit in one of these screens.

Screens in order – PrP UTR inh	Mtb hypoxia rep	Mtb hypoxia rep growth	ugtP null kill	Sa RN4220 lethal	BJeLR lethal	Bead autofluor
CC(=O)Nc1ccc(S(=O)(=O)Oc2ccc(C=N/N=C3/NC(=O)C(CC(=O)O)S3)cc2)cc1 (configuration not stated)
→ ·	-0.7	4.9	6.5	1.0	·	·
CCCC(CCC)C(=O)Nc1ccncc1
→ -7.9	-2.6	-1.5	-10.0	-3.5	15.4	5890
CC(C)C(=O)Nc1ccc(S(=O)(=O)N2CCC(c3nc4ccccc4[nH]3)CC2)cc1
→ -24.4	-10.1	1.5	-7.1	-3.4	1.6	6224
Cc1ccc(C)c(S(=O)(=O)N2CC(=O)N(CCc3ccccc3)C(=O)C2)c1
→ -10.0	10.6	0.9	8.9	1.9	-2.0	9341
CC(=O)NCCSC(=O)c1ccc(F)cc1
→ -26.3	·	·	8.4	1.5	5.0	4835
NC(=S)NN=C1CC(c2ccc3c(c2)OCCO3)Oc2ccc(F)cc21 (configuration not stated)
→ ·	11.7	6.4	-8.0	5.5	·	·
O=C(CCN1C(=O)c2ccccc2C1=O)Nc1cccc(S(=O)(=O)NC2=NCCC2)c1
→ -13.1	-0.2	3.7	4.7	2.5	5.0	4429
CCc1ccc(C(C(=O)NCc2ccc(OC)cc2)N(CCOC)C(=O)Cc2cccs2)cc1 (configuration not stated)
→ -29.1	9.9	4.2	2.5	0.6	8.7	8431
Cc1ccccc1-c1cccc([C@@H]2C[C@H]3[C@H](CON3C)CN2Cc2ccccc2)c1
→ -17.0	-11.0	-1.3	10.2	-4.5	·	4168
COc1ccc(OCC(=O)NN=Cc2ccc(N(C)C)cc2)cc1
→ ·	-1.8	-8.4	7.5	1.2	·	·
CCc1ccc(N2CN=c3sc(=Cc4ccccc4)c(=O)n3C2)cc1
→ ·	-5.5	4.0	-3.0	4.7	·	·
Cn1cc(Cl)c(C(=O)OCC(=O)Nc2nc(-c3ccc(Br)cc3)cs2)n1
→ -61.9	8.2	0.9	75.2	17.1	3.5	4262
COc1ccccc1C(=O)NC(=O)COC(=O)Cc1ccccc1[N+](=O)[O-]
→ -23.7	2.3	7.9	2.2	2.2	-8.6	?
CC(=O)c1sc(NC(=O)c2ccc(COc3ccccc3Cl)o2)nc1C
→ -10.5	·	·	·	·	-7.6	3534
Cc1cc(C)c(C)c(S(=O)(=O)N2CCN(C(=O)CNC(=O)c3ccco3)CC2)c1C
→ -2.0	-1.3	5.8	2.9	-5.6	·	2947
COc1ccc(OCC(=O)O/N=C(\N)Cc2ccc(Cl)cc2Cl)cc1
→ -20.4	·	·	19.5	1.0	4.2	2705
CC(C)(C)C(=O)N1CCn2c1nc1ccccc12
→ -23.4	-5.3	-0.8	0.8	1.3	0.0	4231
c1ccc2c(c1)OCC(c1csc3ncnc(N4CCCC4)c13)O2 (configuration not stated)
→ -0.5	·	·	-2.0	3.5	5.8	2425
CCOc1ccc(CC(=O)NNC(=O)/C=C/C(=O)O)cc1
→ 0.8	-9.3	-0.8	10.4	4.8	9.2	3893
COc1cc(/C=C/C(=O)OCC(=O)NC2CCS(=O)(=O)C2)ccc1O (configuration not stated)
→ -3.5	8.8	-3.1	3.4	6.8	-1.0	2445
COc1ccc(Cl)cc1NC(=O)CN(C)C(=O)c1cccc2cccnc12
→ -27.0	8.9	6.7	12.3	6.4	·	4147
Nc1ccc2c(c1Br)Cc1ccccc1-2
→ -31.6	8.3	4.3	1.8	-4.8	·	3715
O=c1[nH]c(=O)n(C2CCCO2)cc1F (configuration not stated)
→ 1.9&-5.8	2.6	6.3	3.6	7.8	-1.9	5632
Cc1cc(NC(=O)Nc2cccc(C(F)(F)F)c2)n(C)n1
→ -0.8	14.0	12.5	-11.9	3.3	8.3	2358
COCCNC(=O)C(c1ccc(OC)cc1)N(Cc1ccco1)C(=O)CCC(=O)Nc1ccccn1 (configuration not stated)
→ -4.0	-2.7	-2.3	8.6	5.0	2.7	3734
COc1ccc(NC(=O)N2CCCC2C(=O)Nc2ccc(C)c(Cl)c2)cc1 (configuration not stated)
→ -23.9	7.6	2.3	1.3	1.8	-1.5	9537
COc1ccc(C(=O)NN=C2CCCC2)cc1OC
→ -13.3	-16.9	-8.7	-0.1	2.8	-0.1	5479
C=CCn1c(SCC(=O)Nc2ccc(F)cc2F)nnc1-c1cnccn1
→ -26.4	-7.7	-6.0	-1.6	-0.6	0.1	6030
CCOC(=O)CN1CCC(c2ccccc2)CC1
→ -13.6	8.7	2.2	4.8	3.1	6.2	2612
Fc1ccc(CNc2ccccn2)cc1
→ -21.6	1.9	4.0	7.9	5.3	1.0	3813
O=C1OCCN1C(=O)[C@H]1[C@H](c2ccccc2)C(c2ccc(F)cc2)=NN1c1ccccc1
→ -0.9	-8.0	-24.3	21.5	-2.8	·	3939
COc1cccc(CN2CCC(N(CCc3ccccc3)Cc3ccccc3)CC2)c1OC
→ -19.8	-1.7	7.5	-12.8	0.5	-2.2	3281
Cc1cc(C)nc(N2CCC(C(=O)Nc3ccc4c(c3)CCC4)CC2)n1
→ -1.5	6.6	6.4	5.0	4.2	-17.1	21599*
CCc1ccc(NC(=O)CCS(=O)(=O)c2ccc3c(c2)CCN3C(C)=O)cc1
→ -13.2	2.3	-7.5	4.6	1.5	2.0	5327
O=C(NCCc1ccccc1)c1ccccc1NS(=O)(=O)N1CCCC1
→ -39.0	16.3	0.3	2.9	6.1	-6.9	8903
CC(CN1CCCCC1)OC(=O)/C=C/c1ccccc1 (configuration not stated)
→ -17.7	22.2	12.3	9.5	0.4	-12.8	3373
CCOC(=O)C1CCCN(/C=C2\SC(=S)N(CC)C2=O)C1 (configuration not stated)
→ -37.3	-2.8	-5.0	2.5	6.0	-1.3	4002
O=C(NCc1ccco1)c1ccc(-c2csnn2)cc1
→ -29.6	8.1	10.7	9.8	2.9	5.8	3628
CC(C)(C)OC(=O)NOCC(=O)N(CC(=O)c1ccccc1)Cc1ccccc1
→ -16.8	7.2	6.8	0.0	3.2	4.6	4078
CC(C)CCc1noc(CN(C)CC2CCN(Cc3ccccc3)CC2)n1
→ -8.1	-6.7	4.3	5.0	9.8	4.6	4699
C#Cc1ccc([C@H]2C=C(C(=O)O)O[C@@H](OCc3ccc(CO)cc3)C2)cc1
→ -3.8	·	·	·	·	2.4	4069
Cc1cc(/C=N/n2cnnc2)c(C)n1-c1ccccc1
→ -4.6	·	·	·	·	0.0	2943
c1ccc(CSc2ccc(-c3ccccn3)nn2)cc1
→ -68.2	12.8	6.3	1.2	9.4	-7.6	4307
O=C(CSCc1ccc(Cl)cc1)NN=Cc1ccccc1
→ ·	-2.5	-3.1	-9.4	-1.5	·	·
Cc1cc(C)c2c(c1)/C(=N/NC(=O)c1ccc(O)cc1)CCC2
→ -11.5	·	·	·	·	-2.5	4629
CC(C)c1ccc(N2C(=O)NC(=O)/C(=C/c3cnc(-c4ccccc4)nc3)C2=O)cc1
→ -24.7	0.5	7.0	-2.0	0.2	-15.9	2192
CCOC(=O)c1cc(CC)sc1N
→ -4.7	·	·	10.0	6.9	1.3	5833
c1ccc(OCCN2C3=NCCN3c3ccccc32)cc1
→ -2.2	8.4	13.2	-7.9	-10.5	14.4	3340
O=[N+]([O-])c1cc(C=NNC(=Nc2ccccn2)c2ccccn2)ccc1O
→ ·	4.5	4.9	66.8	84.6	·	·
CC(=O)NC1(c2cccc(F)c2)CCN(CC(=O)NC(C)C)CC1
→ -5.3	0.0	10.6	3.9	0.0	5.0	3893
Cn1nccc1C(=O)Nc1sc2c(c1C#N)CCCC2
→ -8.6	6.1	3.4	2.9	3.8	-1.2	4578
Cc1ccc2c(c1)NC(=O)C(CC(=O)N(C)Cc1ccccc1)O2 (configuration not stated)
→ -18.2	·	·	5.8	2.2	-0.6	5626
CC1CCN(CCCCOc2cccc(C(C)C)c2)CC1
→ ·	4.5	8.0	3.3	-0.8	7.2	3352
CC(C)Cc1cc(C(=O)N2CCCC(CCC(=O)N(C)CCc3ccccn3)C2)no1 (configuration not stated)
→ -25.8	1.7	5.5	5.9	5.8	-3.6	2467
O=C(Nc1ccccc1)NC1CCN(Cc2c(F)cccc2Cl)CC1
→ -28.7	-1.9	-0.7	14.2	3.3	1.4	3915
COc1ccc(C(=O)Cc2nnc(C)s2)cc1
→ -59.4	12.0	7.9	4.9	0.1	13.8	2472
O=C(CN1CCN(Cc2ccc(Cl)cc2)CC1)N/N=C/C=C/c1ccccc1[N+](=O)[O-]
→ -15.5	·	·	·	·	-10.5	2344
CCOc1ccccc1C=NNC(=O)c1cccc(S(=O)(=O)N2CCOCC2)c1
→ ·	1.9	-7.2	-0.9	-2.7	·	·
CC1(C)NS(=O)(=O)Oc2ccccc21
→ -26.2	-3.0	-5.4	-7.7	0.1	10.7	4029
Cc1cnn(-c2cc(NN=Cc3ccccc3F)ncn2)c1
→ ·	15.6	14.1	1.1	-1.1	·	·

Later entries
Screens in order – PrP UTR inh	Mtb hypoxia rep	Mtb hypoxia rep growth	ugtP null kill	Sa RN4220 lethal	BJeLR lethal	Bead autofluor
O=C(Nc1ccc2ccccc2c1)c1ccccc1F
→ -49.8	25.5	12.8	-2.5	4.3	1.7	3915
Cc1ccc(S(=O)(=O)N2CCN(C(=O)c3ccc(OCc4c(C)noc4C)cc3)CC2)cc1
→ -2.9	·	·	9.6	-2.9	0.7	4785
COC(=O)c1c(Sc2ccccc2)c2ccccc2n1C
→ 0.6	1.2	5.6	-11.0	-1.8	-0.7	3683
CCn1c(SCC(=O)Nc2c(C)n(C)n(-c3ccccc3)c2=O)nc2c1c(=O)n(C)c(=O)n2C
→ -22.6	13.6	0.2	6.9	7.4	2.8	5016
Cc1ccc(C(=O)NCCNC(=O)c2ccc(C)nc2)cc1
→ -14.2	2.8	-3.3	9.2	4.2	-11.5	4385
O=C(C[C@H]1C[C@H](C(=O)N2CCCCC2)[C@@]2(CCc3ccccc3)c3[nH]c4ccc(Cl)cc4c3CCN2C1=O)NCc1ccco1
→ -15.2	-11.6	1.1	-22.1	0.0	·	3264
COc1ccc(OCC(=O)Nc2ccc3c(c2)nc(CCN2CCN(C)CC2)n3C)cc1
→ 3.2	-3.1	4.3	0.3	2.0	-3.9	5351
O=C(c1cc(S(=O)(=O)N2CCC3(CC2)OCCO3)ccc1F)N1CCCCC1
→ -14.6	14.1	6.3	-0.2	0.9	-6.2	4526
COc1ccccc1C(=O)Oc1cc(C)[nH]c(=O)c1[N+](=O)[O-]
→ -5.5	·	·	·	·	-7.4	1796
CC(=O)Nc1c(O)nc(SC/C=C/CSc2nc(O)c(NC(C)=O)c(=O)[nH]2)[nH]c1=O
→ -8.9	-4.7	-1.9	7.0	5.8	1.9	5680
O=S(=O)(c1ccc2ccccc2c1)N1C=CC(C(F)(F)F)=NCC1
→ -8.4	·	·	-5.5	2.4	-1.6	4522
Cc1cccc(C(=O)N[C@@H](C)C(=O)N2CCN(c3ncccn3)CC2)c1
→ ·	12.5	-0.3	6.1	4.9	·	?
